A1 inh = caspase 3/7 activation in MEF A1-2A-BIM cells, primary screen, A1 inhibitor project, cell-based, luminescence, HTS | 330,000 compounds, 0.066% hits | AID 2462, 2010 | Caspase-Glo 3/7 luminescence, 3 h; percent of clofoctol response, vehicle zero | caspase activation, % (no concentration beside the values);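 active = over half of replicate activation scores above 10%, or exactly half above 10 with the replicate mean above 10; inconclusive = replicate mean below 10 yet half the replicates above 10; inactive = over half of replicates below 10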;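 also: wells of about 30 µL received 50 nL stock; many hits fall short of the cut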
LANA-H2B inh = blockers of LANA interaction with H2A/H2B – biochemical, FP readout, HTS, primary screen; Protein LANA1 (Human herpesvirus 8 type P (isolate GK18)), Q9QR71; cell-free LANA-H2A/H2B peptide, fluorescence polarization; inhibition, % (no concentration beside the values); 320,000 compounds, 0.6% hits; in the data active = inhibition mostly above about 10%, no sharp cut-off; inactive = mostly below about 6.7%;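 also: stock transfer was 7.5 nL into about 10 µL; 0% = median of vehicle wells and 100% = median of positive control wells; one replicate is shown; the record names a cut of 25% in any replicate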
Target sequence (Q9QR71 whole entry, looked up): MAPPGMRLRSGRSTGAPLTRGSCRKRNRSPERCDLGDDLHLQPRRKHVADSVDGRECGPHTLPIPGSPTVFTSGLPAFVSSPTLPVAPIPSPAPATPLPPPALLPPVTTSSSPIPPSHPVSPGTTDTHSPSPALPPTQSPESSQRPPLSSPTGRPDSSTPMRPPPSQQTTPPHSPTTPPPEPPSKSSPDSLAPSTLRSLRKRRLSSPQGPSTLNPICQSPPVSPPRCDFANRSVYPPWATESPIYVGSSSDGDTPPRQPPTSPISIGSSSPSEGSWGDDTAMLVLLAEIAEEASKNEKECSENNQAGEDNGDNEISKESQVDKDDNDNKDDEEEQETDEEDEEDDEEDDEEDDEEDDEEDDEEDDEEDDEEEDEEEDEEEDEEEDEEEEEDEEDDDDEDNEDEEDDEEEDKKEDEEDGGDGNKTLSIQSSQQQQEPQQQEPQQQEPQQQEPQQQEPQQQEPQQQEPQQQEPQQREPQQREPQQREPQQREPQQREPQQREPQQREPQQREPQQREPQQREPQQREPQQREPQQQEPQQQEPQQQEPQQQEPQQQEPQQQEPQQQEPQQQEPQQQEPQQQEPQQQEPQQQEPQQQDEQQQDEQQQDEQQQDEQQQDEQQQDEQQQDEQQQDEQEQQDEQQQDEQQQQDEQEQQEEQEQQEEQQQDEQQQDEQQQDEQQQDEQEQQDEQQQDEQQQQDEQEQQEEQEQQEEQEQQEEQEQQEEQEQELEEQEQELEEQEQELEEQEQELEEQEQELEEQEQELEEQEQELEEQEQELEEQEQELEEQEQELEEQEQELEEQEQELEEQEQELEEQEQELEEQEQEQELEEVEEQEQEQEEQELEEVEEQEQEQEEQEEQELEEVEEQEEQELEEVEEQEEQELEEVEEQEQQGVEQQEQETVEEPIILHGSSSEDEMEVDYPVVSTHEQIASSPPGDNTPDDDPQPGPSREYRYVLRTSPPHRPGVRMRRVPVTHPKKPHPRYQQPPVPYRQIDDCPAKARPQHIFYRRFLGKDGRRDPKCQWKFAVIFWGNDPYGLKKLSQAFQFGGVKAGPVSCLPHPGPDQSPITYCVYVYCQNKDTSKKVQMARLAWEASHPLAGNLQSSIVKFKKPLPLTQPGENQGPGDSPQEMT
Calb FLC = C. albicans growth inhibition with fluconazole, primary screen, CaCi-2 strain, Alamar Blue fluorescence; C. albicans CaCi-2 (fluconazole-resistant clinical isolate) + fluconazole, 48 h; growth inhibition, % (concentration not given with the values); 300,000 compounds, 0.57% hits; AID 1979, 2009;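 active = most replicates above 75%; inconclusive = exactly half above 75%; inactive = most below 75%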;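 also: all wells also contain fluconazole at 8 µg/ml as a sub-toxic cotreatment; 0% = median of DMSO wells and 100% = median of geldanamycin control wells; wells of about 8 µL received 7.5 nL stock; the first replicate is given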
Ecoli rRNA inh = reduced GFP signal of wild-type E. coli, primary screen, bacterial rRNA inhibitor project, GFP/RFP fluorescence, OD600, single point | E. coli WT GFP vs humanized-ribosome RFP mutants, 24 h; active compounds read low; DMSO median 0, no signal -100 | GFP signal change (wild-type ribosome), % (test concentration not listed) | 350,000 compounds, 1.6% hits;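 active = significant combined selectivity score with lowered wild-type GFP, culture density cut under 30%, mutant RFP and density less affected; inactive = any of these conditions unmet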; also: one replicate is shown; some compounds called inactive have numbers as strong as hits
Beta cell apopt = inhibitors of cytokine-induced beta cell apoptosis, primary screen, luminescence; INS-1E cytokine-induced death, ATP luminescence, 48 h; percent of positive-control rescue, neutral wells zero; protection from apoptosis, % (test concentration not listed); 300,000 compounds, 0.8% hits; AID 435005, 2010;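 active = all replicates at 75% or more, or half of them and the mean; inconclusive = half reach 75% but not the mean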;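 also: 0% = cytokine-treated negative control wells and 100% = positive control rescue; higher means more ATP so stronger rescue from cytokine killing; wells of about 40 µL received 100 nL stock; the first replicate is given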
T cruzi repl = inhibitors of intracellular T. cruzi growth, primary screen, luminescence, NIH3T3 host cells. inhibition, % (no concentration beside the values). 300,000 compounds, 1.4% hits. T. cruzi beta-gal in NIH3T3, 90 h;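 active = mean inhibition across valid replicates above about 55%, limit read from the data; inconclusive = mean below that limit but half or more replicates reach it; inactive = mean below it, under half of replicates reach it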;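 also: signal also drops with host cell toxicity which is not excluded here; 0% = plate median of DMSO wells and 100% = zero luminescence signal; higher percent means less beta-gal luminescence so fewer parasites; stock transfer was 50 nL into about 50 µL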
ALR inh = inhibitors of human ALR sulfhydryl oxidase, primary screen, biochemical, H2O2 detection, HRP-luminol luminescence, single point; FAD-linked sulfhydryl oxidase ALR (Homo sapiens), P55789; purified ALR, DTT oxidation; inhibition, % (concentration not given with the values); 290,000 compounds, 3.8% hits; AID 485317, 2010;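 active = mean and each replicate at 75% or more; inconclusive = only one of the two met; inactive = neither met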;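 also: stock transfer was 7.5 nL into about 7.5 µL; 0% = neutral wells and 100% = wells with inactivated enzyme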
Beta2AR agonist = beta2AR agonists driving receptor internalization, primary screen, cell-based, FAP fluorogen, flow cytometry; response, % (no concentration beside the values); Am2.2-beta2AR cells; reference of the scale not given here; AID 504454, 2011; 340,000 compounds, 0.43% hits;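 active = response above a set limit, near 3 SD of response in nonfluorescent compounds, cut at about 42% in these data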;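 also: stock transfer was 100 nL into about 11 µL; a reference agonist was the positive control; negative values mostly stem from fluorescent compounds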
Ecoli rRNA inh OD600 = recorded beside Ecoli rRNA inh, whose call it bears; OD600 change, %; measured here: OD600 growth;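 optical density of the mix in the first replicate; 0 = DMSO median and -100 = no signal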
Ecoli rRNA inh RFP = second read-out of Ecoli rRNA inh, no call of its own (marks repeat the call); RFP signal change, %; measured here: RFP humanized mutant strains;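 first replicate; 0 = DMSO median and -100 = no signal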
* hit, by the source's call; u = inconclusive; x = no result given.

SMILES	A1 inh	LANA-H2B inh	Calb FLC	Ecoli rRNA inh	Ecoli rRNA inh OD600	Ecoli rRNA inh RFP	Beta cell apopt	T cruzi repl	ALR inh	Beta2AR agonist
O=C(CCl)Nc1cccc(S(=O)(=O)NC2=NCCC2)c1	0.0	5.2	-0.9	5.7	8.2	-3.5	-0.7	-5.4	-4.5	-3.6
CC1CN(C(=O)c2ccccc2Sc2ccccc2C#N)CC(C)O1 (centres undefined)	0.0	0.4	23.6	x	x	x	-2.6	-7.2	-0.7	-0.7
CNC(=O)N(O)C1N(/N=C/c2ccc(N(C)C)cc2)C(=S)SC1(C)C (centres undefined)	1.9	-1.5	-5.1	-1.3	7.4	-3.4	-3.3	9.7	98.5*	-9.2
COc1ccc(CCNc2nc3c(c(=O)n(C)c(=O)n3C)n2C)cc1OC	0.6	-3.3	11.0	x	x	x	x	-19.6	4.1	-0.4
Cc1ccc(C(C)NC(=O)c2cc3cc(Br)ccc3oc2=N)cc1 (centres undefined)	-0.1	2.5	8.1	4.7	4.8	1.1	-6.2	-4.2	-2.4	6.5
O=C(CSc1ccc(Cl)cc1)Nc1ccc(N2CCN(c3ccccc3)CC2)c(F)c1	0.5	-0.7	-1.8	x	x	x	x	-1.2	x	-5.6
COc1cccc(C(=O)Nc2cccc(NC(=O)c3cccs3)c2)c1	-0.3	-7.9	35.4	-15.9	-13.1	-7.6	7.4	26.2	2.3	-3.4
Cc1ccc(NC(=O)CN(C)C(=O)COc2c(Cl)cc(Cl)c3ccc(C)nc23)cc1	0.1	-1.5	4.6	1.3	2.3	-1.2	-8.0	12.9	-23.7	-2.1
Nc1ncc(Br)cc1S(=O)(=O)NCCC(=O)N1CCN(c2ncccn2)CC1	0.3	1.3	-2.4	x	x	x	-5.5	8.5	0.5	1.8
CCN(CC)c1ccc(/C=N/NC(=O)c2cccc(S(=O)(=O)Nc3ccccc3OC)c2)cc1	0.3	-4.2	9.6	-3.7	-10.9	-3.2	-9.6	20.4	-9.4	5.3
CC1CN(C(=O)c2cccc(S(=O)(=O)Nc3ccc(Cl)cc3)c2)CC(C)O1 (centres undefined)	1.0	-7.5	3.2	-4.2	0.8	2.4	-5.2	-1.6	x	10.0
O=C(COC(=O)c1cc(=O)c2ccccc2o1)NC1CCCC1	0.6	5.4	-3.8	6.3	-2.0	-1.1	-0.4	-8.4	0.1	9.3
c1cnc2c(OCc3nc4ccccc4[nH]3)cccc2c1	-2.0	-0.2	7.8	-9.2	1.3	7.9	x	-3.7	-5.9	-1.8
COc1cccc(C2NC(C)(C(=O)O)C3C(=O)N(C(C)C)C(=O)C23)c1O (centres undefined)	0.1	0.9	18.2	5.2	0.1	1.3	x	4.1	64.3	0.2
Cn1ncc2c(NNC(=O)c3ccc(Cl)c(Cl)c3)ncnc21	-1.0	-4.9	1.8	x	x	x	6.1	-13.9	7.7	1.3

3 of the entries above in order of the Ecoli rRNA inh RFP value, high to low.
canonical_smiles | A1 inh | LANA-H2B inh | Ecoli rRNA inh | Ecoli rRNA inh OD600 | Ecoli rRNA inh RFP | ALR inh | Beta2AR agonist
COc1cccc(C2NC(C)(C(=O)O)C3C(=O)N(C(C)C)C(=O)C23)c1O (centres undefined) | 0.1 | 0.9 | 5.2 | 0.1 | 1.3 | 64.3 | 0.2
CCN(CC)c1ccc(/C=N/NC(=O)c2cccc(S(=O)(=O)Nc3ccccc3OC)c2)cc1 | 0.3 | -4.2 | -3.7 | -10.9 | -3.2 | -9.4 | 5.3
O=C(CCl)Nc1cccc(S(=O)(=O)NC2=NCCC2)c1 | 0.0 | 5.2 | 5.7 | 8.2 | -3.5 | -4.5 | -3.6

(cont.)
SMILES	A1 inh	LANA-H2B inh	Calb FLC	Ecoli rRNA inh	Ecoli rRNA inh OD600	Ecoli rRNA inh RFP	Beta cell apopt	T cruzi repl	ALR inh	Beta2AR agonist
Cn1nc(C(=O)OCC(=O)Nc2ccc(SC(F)F)cc2)c2ccccc2c1=O	-0.2	-6.6	x	1.5	-11.9	1.3	-1.2	x	-4.9	2.0
C=CCNC(=O)CN1c2cccc3cccc(c23)S1(=O)=O	0.5	-4.0	1.6	-0.3	4.1	0.9	x	2.1	x	1.2
Cc1ccc(N(Cc2ccccc2)C(=O)c2cccc(S(=O)(=O)N3CCN(C)CC3)c2)cc1	-0.5	3.6	-2.6	-7.8	-12.8	4.1	-2.1	28.5	-1.0	-0.7
COc1ccc(CC(=O)Nc2cccc(-c3cn4ccccc4n3)c2)cc1	0.4	2.9	u	-9.4	-14.5	-1.5	6.1	5.2	-0.6	-5.1
CN(C)CCn1c(NCc2ccc3c(c2)OCO3)nc2ccccc21	0.7	1.0	-1.0	13.9	17.0	5.4	x	5.6	38.1	-17.5
COc1cc(S(=O)(=O)NCc2ccccc2)ccc1-n1cnnn1	0.7	6.1	-2.8	-3.2	-2.8	0.5	13.2	-3.9	-0.5	-5.4
COc1ccccc1NC(=O)N1CCCC(C(=O)Nc2cccc(C)c2C)C1 (centres undefined)	2.6	-2.3	-16.2	x	x	x	3.1	3.2	-13.4	-2.8
COc1ccc(S(=O)(=O)N2CCOC2CNC(=O)C(=O)NCCc2ccccc2)cc1OC (centres undefined)	0.1	3.8	5.9	-3.7	-9.1	-7.5	-4.6	-10.9	x	1.2
COc1ccc(OC)c(NC(=O)CC2C(=O)NCCN2C(=O)Nc2cccc(Cl)c2)c1 (centres undefined)	0.0	1.5	-7.6	x	x	x	-3.3	-45.4	-9.9	-3.0
CCOc1ccc(NC(=O)C(CC)n2nc(C)c3c(C)n(-c4ccccc4)nc3c2=O)cc1 (centres undefined)	-0.4	-0.6	2.3	-23.3*	-17.5*	-9.6*	1.8	17.0	-9.2	14.2
O=C(CCNC(=O)c1ccco1)Nc1ccc(Cl)cc1F	1.1	-5.3	2.5	-3.3	-3.4	-0.1	-4.5	-13.3	2.1	0.5
O=C(NC(=S)NC1CCSC1=O)c1ccccc1F (centres undefined)	0.0	-2.2	-0.8	x	x	x	-7.5	-8.2	-6.3	5.2
COc1cccc(CNC(=O)Cn2c(=O)oc3cc(S(=O)(=O)N4CCCCC4)ccc32)c1	-0.1	9.0	-27.6	-3.8	2.0	2.5	3.9	0.1	-7.7	3.5
CN(C)CCCn1c(=O)n(Cc2ccccc2)c(=O)c2c3c(sc21)CCCCC3	0.1	-5.4	6.0	-32.7	-47.2	4.8	18.4	46.7	-3.8	-4.5
Cc1ccc(OCC(O)CN2C(=O)NC(C)(C)C2=O)cc1C (centres undefined)	-0.1	-0.2	-5.8	-0.4	2.7	0.8	0.0	1.8	2.4	8.8
COc1ccc(CNC(=O)CN(C(=O)Cn2nnc(-c3ccccc3F)n2)c2ccc(C)cc2)cc1	-1.3	-4.6	12.3	3.8	0.0	5.0	0.3	17.5	-14.5	7.8
CCN1N=C(C)C=C(c2ccccc2)n2c1nc1ccccc12	1.1	9.5	8.5	6.7	4.4	1.1	-4.6	1.9	-6.8	0.6
CCNCCNC(=O)c1c(O)c2c([nH]c1=O)CCCC2	0.6	-2.1	-25.6	21.8	7.1	4.1	6.6	9.5	13.9	-16.7
CCOC(=O)c1c(NC(=O)CSc2nnc3ccccn23)sc2c1CCC2	-0.1	0.9	11.3	-5.0	-7.7	7.4	1.5	16.7	20.4	-6.6
O=C(NCCN1C(=O)S/C(=C\c2ccc(Cl)c(Cl)c2)C1=O)C1COc2ccccc2O1 (centres undefined)	-0.3	2.5	-6.2	15.1	18.9	1.4	-4.1	10.4	33.6	-3.0
Cc1ccc2nc(SCc3ccccc3)c(C=O)c(=O)n2c1	-0.4	0.4	-0.9	8.9	12.1	-2.5	4.3	-2.5	-0.5	5.6
O=C(COC(=O)c1ccco1)NC(c1ccccc1)c1ccccc1	-0.1	3.3	-7.1	-2.2	-1.8	2.1	-8.4	-9.3	16.6	14.1
Cc1ccc(-n2[nH]c(C)c(C=Nc3ccc(S(=O)(=O)Nc4nccs4)cc3)c2=O)cc1	-7.5	2.3	-1.3	x	x	x	14.0	14.3	4.0	x
COc1ccccc1N1CCN(C/C(C)=C/c2ccccc2)CC1	-0.1	0.7	-7.9	x	x	x	1.7	-6.3	4.4	6.1
O=C(COC(=O)CNC(=O)c1ccccc1)Nc1ccc(Cl)cc1C(F)(F)F	0.8	3.0	-2.2	4.4	5.1	-2.7	-9.0	-12.6	-2.9	-2.0
CC(Oc1cccc(Cl)c1)C(=O)Nc1ccc(S(=O)(=O)Nc2ncccn2)cc1 (centres undefined)	2.8	-5.8	-5.5	4.5	3.3	10.6	-1.2	-7.7	7.5	-0.9
CCc1n[nH]c(=O)c2cc3cc(OC)ccc3n12	0.9	0.9	3.5	-10.1	12.5	14.6	-4.4	5.4	-6.8	1.1
O=C(NCCC1=CCCCC1)c1c(O)nc2sccn2c1=O	1.7	x	3.5	0.5	-1.4	-0.5	-2.7	-5.9	x	-0.9
COC(=O)c1cc(OC)c(OC)cc1NCC(=O)Nc1ccc(C)cc1	0.2	x	-0.1	4.8	11.2	2.8	-2.3	-1.3	x	0.5
CCNC(=O)COc1cc(C)c(Cl)c(C)c1	-0.4	1.1	-5.0	x	x	x	-6.6	-1.7	x	3.5
CCCCn1c(N)c(N(CCOC)C(=O)CC(NC(=O)c2ccccc2)c2ccccc2)c(=O)[nH]c1=O (centres undefined)	-1.1	11.3	8.2	5.1	10.6	-2.8	-4.4	-11.1	-1.2	-2.2
Cc1cc(C(=O)N2CCN(Cc3ccc4c(c3)OCO4)CC2)on1	0.4	0.1	-8.8	9.4	9.9	-2.3	-0.3	2.2	-6.0	-1.1

Pulled by structure from above:
SMILES	A1 inh	LANA-H2B inh	Calb FLC	Ecoli rRNA inh	Ecoli rRNA inh OD600	Ecoli rRNA inh RFP	Beta cell apopt	T cruzi repl	ALR inh	Beta2AR agonist
Cc1ccc2nc(SCc3ccccc3)c(C=O)c(=O)n2c1	-0.4	0.4	-0.9	8.9	12.1	-2.5	4.3	-2.5	-0.5	5.6
CCCCn1c(N)c(N(CCOC)C(=O)CC(NC(=O)c2ccccc2)c2ccccc2)c(=O)[nH]c1=O (centres undefined)	-1.1	11.3	8.2	5.1	10.6	-2.8	-4.4	-11.1	-1.2	-2.2
Cc1ccc(-n2[nH]c(C)c(C=Nc3ccc(S(=O)(=O)Nc4nccs4)cc3)c2=O)cc1	-7.5	2.3	-1.3	x	x	x	14.0	14.3	4.0	x
COC(=O)c1cc(OC)c(OC)cc1NCC(=O)Nc1ccc(C)cc1	0.2	x	-0.1	4.8	11.2	2.8	-2.3	-1.3	x	0.5
CCNC(=O)COc1cc(C)c(Cl)c(C)c1	-0.4	1.1	-5.0	x	x	x	-6.6	-1.7	x	3.5

Bioassay records: PubChem, several laboratories

Not all compounds are listed; rates above refer to the full screens.
